# Source: PubChem (National Center for Advancing Translational Sciences (NCATS))
# Six1-Eya2 inh: qHTS Assay for Inhibitors of the Six1/Eya2 Interaction; Homeobox protein SIX1 (Homo sapiens) + Protein phosphatase EYA2 (Homo sapiens), …; AlphaScreen GST-Six1/His-Eya2 binding, biochemical; active compounds read low; control for the full effect not named in the record; activity change, % (test concentration not listed); 360,000 tested, 0.56% active; AID 651725, 2012; in the data active = activity change below about -65%; inconclusive = about -30% to -65%; inactive = above about -30%; further: on the % scale 0 is the no-effect control and ±100 the full control effect
#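 Compounds are tested against tagged Six1 and Eya2 proteins bridged by glutathione donor and nickel acceptor beads; after a one-hour incubation at 37 °C without light, AlphaScreen emission is recorded.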
# TRPML1 inh: qHTS for Inhibitors of the Human Mucolipin Transient Receptor Potential 1 (TRPML1) | TRPML1-inducible cells, Ca2+ dye fluorescence, FDSS; active compounds read low; inhibition of EC80 agonist-evoked calcium signal | 390,000 tested, 0.02% active | activity change, negative = inhibition, % (test concentration not listed); in the data active means activity change below about -50%; inconclusive means about -30% to -50%; inactive means above about -30%;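 further: stimulus is agonist 54-4 at its EC80 concentration; on the % scale 0 is the no-effect control and ±100 the full control effect; compound concentration not given in the record; the text of the record puts the active cut at -80%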
# Target sequence (Q9GZU1 whole entry, looked up): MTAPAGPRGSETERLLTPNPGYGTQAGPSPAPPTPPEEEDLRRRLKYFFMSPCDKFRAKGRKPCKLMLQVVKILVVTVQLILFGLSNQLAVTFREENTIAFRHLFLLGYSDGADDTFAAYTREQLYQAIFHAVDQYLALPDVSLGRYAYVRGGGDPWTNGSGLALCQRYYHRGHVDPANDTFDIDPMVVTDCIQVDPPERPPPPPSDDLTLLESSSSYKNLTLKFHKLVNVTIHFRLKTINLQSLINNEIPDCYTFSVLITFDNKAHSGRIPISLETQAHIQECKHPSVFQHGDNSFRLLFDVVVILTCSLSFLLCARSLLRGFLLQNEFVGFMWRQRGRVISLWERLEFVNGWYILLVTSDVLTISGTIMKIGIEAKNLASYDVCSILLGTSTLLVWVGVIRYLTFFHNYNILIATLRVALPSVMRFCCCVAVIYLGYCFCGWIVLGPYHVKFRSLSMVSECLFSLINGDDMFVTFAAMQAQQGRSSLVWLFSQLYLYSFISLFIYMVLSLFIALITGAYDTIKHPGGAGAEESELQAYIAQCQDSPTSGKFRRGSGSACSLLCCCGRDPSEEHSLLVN
#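 Calcium fluorescence in TRPML1-DL cells induced overnight with Tet: a 110 s read after compound pin addition, then a 110 s antagonist read after challenge with 54-4 at 4 uM final (EC80).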
# PINK1 expr mod: A Quantitative High throughput Screen to Identify Chemical Modulators of PINK1 Expression; PINK1 immunofluorescence, high-content cytometry, 24 h; Potency, µM (top dose mostly 76.6 µM), for inactives: at the highest dose activation (PINK1 increase), actives largely listed as activators; 410,000 tested, 0.2% active; AID 624263, 2012; active = well fitted activation curve with a large enough effect; inconclusive = small, poorly fitted or top-dose-only effect; inactive = flat fitted curve, though single readings scatter; cell line not stated here;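 further: potency means the concentration at half of the fitted maximal effect; % of control where 0% means no effect; nearly all actives have a fitted effect of over 65% in size; a mitochondrial uncoupler was the plate control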
#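 Compound titrations (5 concentrations, 24 h) on a stable cell line; DMSO and CCCP controls. Endpoint: fixed-cell PINK1 immunofluorescence with mitochondrial, cell and nuclear markers, scanned by microplate cytometer.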
# TRPML1 agonist: qHTS for Agonists of the Human Mucolipin Transient Receptor Potential 1 (TRPML1). 410,000 tested, 0.12% active. TRPML1-expressing cells, Ca2+ dye fluorescence, FDSS; host cell line not named in the record; reference of the full effect not given here. activation, % (no concentration beside the values). AID 624414, 2012. Mucolipin-1 (Homo sapiens), Q9GZU1; in the data active = activation above about 50%; inconclusive = about 30% to 50%; inactive = below about 30%; further: 0% is about no effect; the text of the record puts the active cut at 80%
#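 Calcium fluorescence on an FDSS kinetic reader gave the read-out. Tet-induced TRPML1-DL cells were plated overnight, dye-loaded (Ca8 with quencher, 45-90 min, room temperature, dark), then read 110 s after compound addition, and again 110 s after 4uM final 54-4 (EC80).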
# D2 ag: Beta-Arrestin HTS for Positive Allosteric Modulators of the Human D2 Dopamine Receptor: Agonists; D(2) dopamine receptor (Homo sapiens), P14416; DiscoveRx PathHunter D2 beta-arrestin, luminescence, 90 min; 100% = 57 uM dopamine signal; activation, % (concentration not given with the values); 360,000 tested, 0.084% active; in the data active = activation above about 40%; inconclusive = about 15% to 40%; inactive = below about 15%; further: compound concentration not given in the record; the text of the record calls up to 30% inactive
# Target sequence (P14416 whole entry, looked up): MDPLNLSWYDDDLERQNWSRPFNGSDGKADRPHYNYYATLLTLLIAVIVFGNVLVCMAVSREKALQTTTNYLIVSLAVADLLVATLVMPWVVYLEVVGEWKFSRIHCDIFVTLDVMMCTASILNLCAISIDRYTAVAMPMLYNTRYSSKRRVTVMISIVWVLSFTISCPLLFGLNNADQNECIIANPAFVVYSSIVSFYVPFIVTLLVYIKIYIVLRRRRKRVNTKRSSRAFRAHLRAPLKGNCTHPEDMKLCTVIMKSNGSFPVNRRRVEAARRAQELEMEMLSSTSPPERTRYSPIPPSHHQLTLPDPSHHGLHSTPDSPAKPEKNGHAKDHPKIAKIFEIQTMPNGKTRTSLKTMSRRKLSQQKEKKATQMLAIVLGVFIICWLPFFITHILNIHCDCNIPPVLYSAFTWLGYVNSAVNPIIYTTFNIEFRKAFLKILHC
#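 DiscoveRx PathHunter D2 beta-arrestin cells (2,100/well) attached overnight, then compound-stimulated 90 min at 37 C in HBSS/10 mM HEPES/0.1% Tween-20 buffer; beta-galactosidase complementation read by luminescence after 1 h at ambient temperature. Dopamine 57 uM final (EC100) as control.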
# CtBP-E1A inh: qHTS Assay for Inhibitors of the CtBP/E1A Interaction. CtBP / adenovirus E1A interaction (AlphaScreen). AlphaScreen GST-E1A/His-CtBP binding, 1536-well; active compounds read low; control for the full effect not named in the record. activity change, % (test concentration not listed). 340,000 tested, 0.49% active. AID 651724, 2012; in the data active means activity change below about -65%; inconclusive means about -30% to -65%; inactive means above about -30%; further: on the % scale 0 is the no-effect control and ±100 the full control effect
#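 Steps: dispense buffer (Tris pH 8.0, NaCl 300 mM, TCEP 1 mM, BSA, Tween 20); add 5X protein mix (GST-E1A, His-CtBP, 125 nM each); pin 23 nL compound; 2 h at 37 °C, dark; add 5X beads (50 ug/mL); 1 h; read.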
# The depositor's hits bear a star; u = inconclusive; x = no result given; & = joins results of further samples; [ ] = another dose, or the depositor's remark.
SMILES,Six1-Eya2 inh,TRPML1 inh,PINK1 expr mod,TRPML1 agonist,D2 ag,CtBP-E1A inh
COc1cc(/C=C/C(=O)OC[C@H]2O[C@H](OC3(CO)OC(CO)C(O)C3O)[C@H](O)[C@@H](O)[C@@H]2O)ccc1O (stereo partly drawn),-0.2,14.7,0.8%,0.0,-3.3,4.4
CCCN1C(=O)c2cc(C(=O)NC3CCCCCC3)ccc2C1O (stereo not drawn),7.0,-15.2,1.6%,-0.1,-2.8,-9.5
CC(=O)N(C(C)=O)c1cccc2c(N(C(C)=O)C(C)=O)cccc12,1.1,9.6,-5.4%[38.3 µM],-0.4,-0.8,10.7
Cc1cc(SCC(=O)NCCC2=CCCCC2)nc2ccccc12,15.7,10.9,0.8%,-0.5,-3.2,-9.0
COc1ccc2c(c1)c1c(c(=O)n(-c3ccc(OC)c(OC)c3)c(=O)n1Cc1ccc(F)cc1)n2C,x,6.8,1.1%,0.0,x,x
O=c1cc(Cl)c2ccccc2n1-c1ccccc1,9.8,12.9,1.8%,2.0,-0.8,2.5
Cc1ccc(NC(=O)CCS(=O)(=O)c2ccc3c(c2)oc(=O)n3C)c(Br)c1,x,10.8,3.6%,-1.4,x,x
Cc1noc(C)c1COc1ccccc1C(=O)N(C)CC(=O)Nc1ccc(Cl)c(Cl)c1,1.4,-13.8,u,-0.5,-4.6,-8.5
O=C(COC(=O)C1=NN(c2ccccc2)C(=O)CC1)Nc1nc(-c2ccc(F)cc2)cs1,0.0,11.2,2.9%,0.9,5.7,0.0
O=C(O)CN1C(=O)S/C(=C\c2cccnc2)C1=O,4.0,0.1,0.9%,0.4,-7.9,x
COC(=O)CSc1nc(N)c2c3c(sc2n1)CCCC3,-9.5,8.1,-2.5%,-1.1,-1.1,-4.1
O=C(c1cc2ccc3cccnc3c2[nH]1)N1CCN(c2cccc(C(F)(F)F)c2)CC1,x,2.3,4.5%,1.5,x,x
O=C(CCc1nnc(-c2ccsc2)o1)N1CCc2c(Cl)cccc2C1,1.6,7.5,2.1%,-0.3,-5.4,x
Cc1cnc(N=Nc2ccccc2)[nH]1,1.5,-0.8,2.4%,-0.6,1.5,4.1
COc1ccc(Nc2ncnc3onc(-c4ccc(Cl)cc4)c23)cc1Cl,x,39.6,7.1%,-0.2,x,x
COc1ccc(NC(=O)c2ccc3c(c2)C(=O)N(CC2CCCO2)C3=O)cc1 (stereo not drawn),-3.1,14.1,1.6%,-0.7,5.0,1.6
CC(O)C(NS(=O)(=O)c1ccc2ccccc2c1)C(=O)OCC(=O)Nc1ccccc1OC(F)F (stereo not drawn),-3.0,-5.3,0.9%,0.4,-1.2,21.9
COc1ccc(OC)c(S(=O)(=O)Nc2cccc(F)c2)c1,2.8,9.5,15.5%[38.3 µM],0.3,0.8,-1.5
COC(=O)C(Cc1ccc(OC(=O)c2ccccc2C)cc1)N1Cc2ccccc2C1=O (stereo not drawn),-3.6,-3.8,0.4%,-0.1,-2.1,-0.4
O=C(O)CC1=C(Nc2ccccc2)C(=O)N(c2ccccc2)C1c1ccc(Cl)cc1 (stereo not drawn),7.0,-6.5,13.2%,-0.7,-2.0,6.3
CO/C(N)=C(\C#N)N=Cc1ccccc1Cl,-2.5,-3.3,2.4%,1.3,0.9,1.2
O=C(NCc1ccc(F)cc1)c1cc2c(s1)CCCC2,0.4,-13.1,-0.6%,0.6,-3.2,8.8
Cc1ccccc1Cn1nnc2c(=O)[nH]c(C3CCN(C(=O)c4ccccc4)CC3)nc21,x,12.1,1.4%,0.8,x,x
COc1ccc(C(=O)OC(C)C(=O)NC2CCCc3ccccc32)cc1OC (stereo not drawn),3.3,20.1,2.6%,2.8,-2.1,-12.7
CCn1cc(C(=O)N[C@@H](C)C(=O)OC)c(=O)c2cc3c(cc21)OCO3,-3.3,4.8,2.8%,-0.1,-4.1,x
CC(C)Cn1c(-c2ccccc2F)n[nH]c1=S,10.9,-7.3,-3.6%,-0.4,-0.6,1.3
COc1cc([N+](=O)[O-])ccc1NC(=O)CSc1nnc(C)c(C)n1,-2.0,-1.0,1.5%,-0.7,-3.9,0.2
CCOC(=O)C(=Cc1ccc(-n2cncn2)cc1)C(=O)OCC,-3.1,0.5,u,-0.1,-4.1,6.0
Cc1cccnc1NC(=O)Nc1ccc(Cl)cc1,4.8,-0.4,1.3%,0.6,1.3,-0.6
Cc1ccccc1CN(c1ccc(C(=O)NCC2CCCO2)cc1)S(C)(=O)=O (stereo not drawn),2.0,9.9,-0.6%,0.7,3.3,8.7
NC(=O)C(c1ccccc1)C1CCCCC1 (stereo not drawn),19.4,-4.3,0.7%,0.3,-4.6,0.0
O=C(O)/C=C\C(=O)Nc1ccccc1N1CCN(c2ccccc2)CC1,-1.7,x,1.4%,x,0.1,x
COCC(=O)Nc1ccccc1NC(C)=O,-1.2,-2.8,-0.7%,-0.9,-0.7,0.8
COC(=O)c1nccnc1C(=O)Nc1ccccc1N1CCOCC1,2.6,-14.7,1.1%,-0.2,-1.6,1.4
COc1ccc(CN(C)C(=O)c2cccc(S(=O)(=O)N3CCN(c4ccccc4)CC3)c2)c(OC)c1OC,-14.8,-1.2,1.1%,1.4,1.0,-12.5
Cc1cc(S(=O)(=O)NCCN2CCOCC2)ccc1Cl,12.0,-6.8,-0.8%,1.1,0.2,3.8
Cc1cccc(NC(=S)NNC(=O)c2ccccc2OC(F)F)c1,3.8,-10.3,1.2%,-0.3,-11.2,-4.1
COCCCn1cc(CN2CC(N3CCN(C)CC3)CS2(=O)=O)nn1 (stereo not drawn),1.3,x,1.0%,-0.9,x,4.0
C[C@]12c3[nH]c4ccc(Cl)cc4c3CCN1C(=O)[C@@H](CC(=O)NCc1cccc(C(F)(F)F)c1)C[C@@H]2C(=O)N1CCCCC1,-3.9,23.4,u,-0.7,3.3,-6.6
COc1ccccc1N(C)S(=O)(=O)c1ccc(C(=O)OCC(=O)Nc2ccc(C(N)=O)cc2)cc1,2.8,-4.4,11.4%,-0.1,3.0,x
O=C(Nc1ccc(Cl)c(Cl)c1)Nc1ccccn1,5.9,-0.9,1.2%,2.6,7.0,5.8
Oc1ccc2ccccc2c1CN1CCN(C/C=C/c2ccccc2)CC1,-18.3,18.6,5.3%,1.7,2.3,u
CC1CCN(CCCNC(=O)C2CCC(CNS(=O)(=O)c3ccccc3)CC2)CC1 (stereo not drawn),6.3,-7.5,-1.9%,-0.6,-3.2,11.8
COc1ccccc1-c1nc2ccccc2c(=O)n1O,-14.9,2.6,0.8%,-1.1,-3.4,-5.3
CC1=CC(=O)C(C(C)C)=CC1=NC(=O)c1ccc(C)cc1,-2.2,7.3,1.7%,1.6,-4.8,x
O=C(NCCCN1CCOCC1)c1ccc(Sc2ccc(F)cc2)c([N+](=O)[O-])c1,-4.1,3.8,0.3%,0.3,-2.9,-3.7
COc1ccc(OCc2cc(C(=O)N3CCC(c4ccccc4)CC3)no2)c(Cl)c1,25.9,7.4,1.0%,3.2,1.9,-13.7
Cc1c(C(=O)Nc2ccccc2F)sc2ncn(CC(=O)N3CCOCC3)c(=O)c12,0.0,21.6,0.2%,-0.1,-1.0,2.4
COc1cccc(CNC(=O)Cc2c(C)c3c(cc(C)c4c(C)c(C)oc43)oc2=O)c1,x,7.4,1.6%,-0.9,x,x
CC(=O)NC(Cc1ccc(C)cc1)C(=O)NC1CCN(C(=O)NCc2ccccc2)CC1 (stereo not drawn),2.6,3.4,2.5%,-1.1,-0.1,22.2
# (listing goes on)
SMILES,Six1-Eya2 inh,TRPML1 inh,PINK1 expr mod,TRPML1 agonist,D2 ag,CtBP-E1A inh
CCC1CN(C(=O)N2CCC(C(=O)NCc3cccc(OC)c3OC)CC2)c2cc(C)ccc2O1 (stereo not drawn),-0.3,u,1.2%&-1.0%,-1.2&1.7,-8.2,-0.3
COCCN(C(=O)CSc1nnc(-c2ccccc2F)o1)c1c(N)n(Cc2ccccc2)c(=O)[nH]c1=O,1.3,8.8,0.5%,-0.1,1.0,0.4
O=C(Nc1ccccc1-c1ccccc1)C12CC3CC(CC(C3)C1)C2,9.9,63.2,4.5%,3.2,-2.3,2.0
COc1ccc(S(=O)(=O)N2CCC(C(=O)Nc3nnc(C)s3)CC2)cc1OC,-1.4,0.2,1.6%,1.3,3.3,8.1
CCc1nc2ccc(C(=O)N3CCN(S(=O)(=O)CC)CC3)cn2c1N(CC)CCOC,4.6,x,1.2%,-0.6,-3.1,0.1
Cc1c(C(=O)OCc2nc3ccsc3c(=O)[nH]2)oc2ccccc12,-5.6,-13.5,0.0%,0.3,-3.2,3.1
CC(C)(C)c1ccc(OCCC(=O)Nc2ccc(N3CCOCC3)cc2N2CCOCC2)cc1,-20.0,-2.5,9.6%,0.9,0.3,-22.3
COc1ccc(S(=O)(=O)NC(C)C(=O)NCCN2CCOCC2)cc1Cl (stereo not drawn),-12.6,2.6,2.5%,-1.1,-5.9,0.2
Cc1cc(F)cc(-c2cc(C(=O)NCc3ccccn3)[nH]n2)c1,1.0,x,2.3%,-1.1,0.4,1.6
O=C(NCC(=O)N(c1ccc(F)cc1)C(C(=O)NC1CCCC1)c1ccncc1)c1ccco1 (stereo not drawn),2.1,5.8,1.3%,0.1,-1.6,-2.0
CCOc1cc(N2CCOCC2)c(OCC)cc1NC(=O)C(C)C,4.2,0.0,0.6%,1.1,3.9,-4.5
CCCC(=O)Nc1nnc(S(=O)(=O)N(CC)c2ccc(OC)cc2)s1,-6.9,11.0,2.1%,-1.2,-2.4,3.4
C=CCc1ccc(OCCCOc2ccc(C)cc2OC)c(OC)c1,5.6,23.8,4.7%,2.9,-2.4,9.2
CC(Sc1nnnn1-c1ccccc1)C(=O)Nc1ccccc1-c1ccccc1 (stereo not drawn),12.8,-8.9,-1.6%,2.0,3.0,3.4

# Arranged by length of the SMILES (largest number first): some entries from above
SMILES,Six1-Eya2 inh,TRPML1 inh,PINK1 expr mod,TRPML1 agonist,D2 ag,CtBP-E1A inh
O=C(NCC(=O)N(c1ccc(F)cc1)C(C(=O)NC1CCCC1)c1ccncc1)c1ccco1 (stereo not drawn),2.1,5.8,1.3%,0.1,-1.6,-2.0
CCCC(=O)Nc1nnc(S(=O)(=O)N(CC)c2ccc(OC)cc2)s1,-6.9,11.0,2.1%,-1.2,-2.4,3.4
Cc1cc(F)cc(-c2cc(C(=O)NCc3ccccn3)[nH]n2)c1,1.0,x,2.3%,-1.1,0.4,1.6
CCOc1cc(N2CCOCC2)c(OCC)cc1NC(=O)C(C)C,4.2,0.0,0.6%,1.1,3.9,-4.5
C=CCc1ccc(OCCCOc2ccc(C)cc2OC)c(OC)c1,5.6,23.8,4.7%,2.9,-2.4,9.2
